# Screening data as filed in PubChem.
# Mtb growth = Mycobacterium tuberculosis H37Rv growth inhibition, cell based, confirmatory dose response (AID 1949). M. tuberculosis H37Rv growth inhibition. most inactive calls were filed without a number and no value below 0 was filed. one-dose inhibition, % at 10 µg/mL; IC50 in µg/mL for titrated hits. 1.6% of 100,000 active;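 active means confirmed in a dose series; inconclusive means about 50% or more but not retested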;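 further: bacteria grown 7 days with compound before Alamar blue readout; 0% = untreated bacteria and 100% = reference antibiotic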
# * hit, by the source's call; i = inactive; ? = inconclusive. The list is partial. The share of hits here may be higher or lower than overall.
SMILES,Mtb growth
CCN1CCN(C(=S)c2ccc(O)cc2)CC1,i
O=C(c1ccco1)N1CCN(C(=O)C(F)(F)F)CC1,4%
Cc1ccc(S(=O)(=O)N(c2ccc(Cl)cc2)C(F)F)cc1,5%
CN(CC(O)COCc1ccccc1)C1CCCCC1 (stereo unspecified),i
C#CCSc1nnc(-c2ccc(Br)cc2)o1,0.94µg/mL*
CCOC(=O)CCc1c(C)c2ccc(OCC(=O)N3CCC(C)CC3)c(C)c2oc1=O,49%
Cc1cc(Cl)c(OCCn2ccnc2)c(Br)c1,1%
COc1ccc(NC(=O)c2ccco2)cc1NC(=S)NC(=O)c1ccc(OCc2ccccc2)cc1,1%
COc1ccc(N2CCN(C(=O)c3cccs3)CC2)c([N+](=O)[O-])c1,2%
COc1ccc(-n2ncc3c(N4CCc5ccccc54)ncnc32)cc1,i
COc1ccc(NC(=O)CC2C(=O)N(CCc3ccccc3)C(=S)N2Cc2cccnc2)cc1 (stereo unspecified),2%
COc1ccc(C)cc1S(=O)(=O)Nc1ncccc1C,i
COc1ccc(CC(=O)NCc2nc(-c3ccccc3)no2)cc1,5%
Clc1ccc(-c2nnc3ccccn23)cc1,i
COc1cc(OC)cc(C(=O)N2CCN(c3cc(Cl)ccc3C)CC2)c1,30%
CC(NC(=O)c1ccccc1Br)c1n[nH]c(=S)n1C (stereo unspecified),i
CCn1c(Sc2ccc([N+](=O)[O-])cn2)nnc1-c1ccc(Cl)cc1Cl,23%
COc1ccc(N(CC(=O)Nc2ccc(F)cc2F)S(C)(=O)=O)cc1OC,i
CCN(CC)c1ccc(NC(=O)Nc2cccc(Cl)c2Cl)cc1,i
CC(=O)c1cccc(N(CC(=O)Nc2ccc(CSc3ccccc3)cc2)S(C)(=O)=O)c1,i
CC(C)NCC#CCOc1ccc(Cl)cc1,i
CCOC(=O)c1cccc(NC(=O)CSc2nnc(CCCc3ccc(OC)cc3)n2C)c1,i
O=C(Oc1ccc2c(=O)c(-c3ccccc3)coc2c1)c1ccccc1F,4%
COCc1[nH]nc2c1C(c1ccc(F)c(F)c1)C(C#N)=C(N)O2 (stereo unspecified),i
CCOc1ccccc1NC(=O)CN(Cc1cccc(C)c1)S(=O)(=O)c1ccc(C)cc1,8%

# Later entries:
SMILES,Mtb growth
O=C(Nc1ccc2snnc2c1)Nc1cccc2ccccc12,?
Cc1cc(C)nc(N(C#N)C(=S)N(C)C)n1,i
CNC(=S)Nc1cc(C(=O)N2CCCC2)ccc1N1CCCC1,i
CCOC(=O)C1=C(C)NC(=O)NC1c1ccc(-c2ccc(Cl)cc2Cl)o1 (stereo unspecified),i
COCCNC(=O)CN(C1CCCCC1)S(=O)(=O)c1ccc(Cl)cc1,i
CCOc1ccc(NS(=O)(=O)c2ccc(NC(=O)c3ccc(F)cc3)cc2)cc1,i
CCOc1ccc(S(=O)(=O)NCc2cccs2)cc1,i
CCn1c(SCc2ccc([N+](=O)[O-])cc2)nnc1-c1ccccc1,i
Cc1cc(C)c(C(=O)c2ccc(C(=O)Nc3ccccc3C(N)=O)cc2)c(C)c1,15%
COc1ccc(-c2noc(Cc3ccc(OC)c(OC)c3)n2)cc1,8%
O=C(Cc1ccc(-c2ccccc2)cc1)N1CCOCC1,i
Cc1ccc2cccc(OCCOc3ccc(Cl)cc3)c2n1,1%
CCOC(=O)c1c(-c2ccccc2)csc1NC(=O)COc1ccccc1[N+](=O)[O-],i
CCOc1cc(C(=O)NC(=S)Nc2ccc(C(=O)O)cc2)cc(OCC)c1OCC,i
O=C(O)C1(c2ccc(Cl)c(Cl)c2)CCCC1,i
COc1ccc(C(CCN2C(=O)CCC2=O)c2ccccc2)cc1 (stereo unspecified),i
O=C(CCc1ccccc1)NC(=S)Nc1ccc(CCC(=O)N2CCCC2)cc1,4%
O=[N+]([O-])c1ccc(S(=O)(=O)Nc2ccc(Br)cc2)cc1,7%
O=C1c2oc3ccc(Br)cc3c(=O)c2C(c2cccc([N+](=O)[O-])c2)N1CCc1ccccc1 (stereo unspecified),i
CCOc1cc(C(=O)O)cc(Br)c1OCC,i
Cc1ccc(N2C(=O)CC(SCCC(=O)Nc3cccc(Br)c3)C2=O)cc1 (stereo unspecified),i
CSc1nc2nc(-c3ccccc3)cc(=O)n2[nH]1,i
CCC(C(=O)OC(C)C)n1cnc2sc(-c3ccccc3)cc2c1=O (stereo unspecified),15%
O=C(NC1CCCCC1)NC1CCCCC1,i
O=C(Nc1ccccc1N1CCOCC1)c1cccc(-c2cc3ccccc3oc2=O)c1,i

# Part of the list above in another layout:
compound | Mtb growth
COCCNC(=O)CN(C1CCCCC1)S(=O)(=O)c1ccc(Cl)cc1 | i
CCOc1ccc(NS(=O)(=O)c2ccc(NC(=O)c3ccc(F)cc3)cc2)cc1 | i
CCOc1ccc(S(=O)(=O)NCc2cccs2)cc1 | i
CCn1c(SCc2ccc([N+](=O)[O-])cc2)nnc1-c1ccccc1 | i
Cc1cc(C)c(C(=O)c2ccc(C(=O)Nc3ccccc3C(N)=O)cc2)c(C)c1 | 15%
COc1ccc(-c2noc(Cc3ccc(OC)c(OC)c3)n2)cc1 | 8%
O=C(Cc1ccc(-c2ccccc2)cc1)N1CCOCC1 | i
Cc1ccc2cccc(OCCOc3ccc(Cl)cc3)c2n1 | 1%
CCOC(=O)c1c(-c2ccccc2)csc1NC(=O)COc1ccccc1[N+](=O)[O-] | i
CCOc1cc(C(=O)NC(=S)Nc2ccc(C(=O)O)cc2)cc(OCC)c1OCC | i
O=C(O)C1(c2ccc(Cl)c(Cl)c2)CCCC1 | i
COc1ccc(C(CCN2C(=O)CCC2=O)c2ccccc2)cc1 (stereo unspecified) | i

# (further entries)
SMILES,Mtb growth
Clc1ccc(Cn2ncc3c(NCCN4CCOCC4)ncnc32)cc1,i
Cc1ccc(C)c(C(=O)N2CCN(c3ccccn3)CC2)c1,i
CCOc1cccc(OCCCN2CCCCC2)c1,i
CCN(CC)S(=O)(=O)c1ccc(NC(=O)c2ccccc2N(C)S(C)(=O)=O)cc1,i
Cn1ncc(Cl)c1C(=O)Nc1ccc(Cl)c(Cl)c1,i
CCn1c(=N)c(S(=O)(=O)c2ccc(Cl)cc2)cc2c(=O)n3cccc(C)c3nc21,i
CCNc1nc(NCC)nc(OCCNS(=O)(=O)c2cc(C)ccc2C)n1,i
O=c1c2ccccc2[nH]c2c(Cl)cccc12,i
COc1cc(OC)c(C(=O)Nc2cccc3ccccc23)cc1OC,1%
COC(=O)C1=CN(C(C)C)C=C(C(=O)OC)C1c1ccc(OCc2ccccc2)cc1,i
Cc1ccc(S(=O)(=O)NC(=O)c2ccccc2C)cc1,i
O=C(COc1ccccc1)Nc1nn[nH]n1,i
C=CCNCCOc1ccc(Cl)cc1C(C)(C)C,i
O=C(NNC(=O)c1ccncc1)NC12CC3CC(CC(C3)C1)C2,i
COC(=O)c1ccc(OC(=O)CCCOc2ccc(Cl)cc2)cc1,i
O=C(CS(=O)(=O)c1ccccc1)Nc1ccc(Cl)cn1,i
CC(C)N1CCN(C(=O)c2cccc(Cl)c2)CC1,i
O=C(N1CCOCC1)C(F)(F)C(F)(F)C(F)(F)F,i
Cc1ccc(S(=O)(=O)N2Cc3ccccc3CC2C(=O)N2CCCCC2)cc1 (stereo unspecified),i
COc1cccc(-c2nc(S(=O)(=O)c3ccccc3)c(N3CCOCC3)o2)c1,i
CCc1ccc(N(CC(=O)NC(C)CC)S(=O)(=O)c2ccccc2)cc1 (stereo unspecified),i
CCC1CCCCN1C(=O)c1cccc(F)c1F (stereo unspecified),i
CC(=O)N1CCN(c2ccc(Cl)cc2[N+](=O)[O-])CC1,i
C=CCn1c(COc2ccc(C(C)C)cc2)nnc1SCC(=O)NC1CCCC1,i
COc1ccc(Br)cc1S(=O)(=O)Nc1ccccc1O,i

# (more compounds)
SMILES,Mtb growth
CCC(C)c1ccc(O)c(NC(=O)CCc2ccccc2)c1 (stereo unspecified),i
Cc1cc(NC(=O)c2cnn3cc(Br)cnc23)no1,i
Cc1occc1C(=O)Nc1cccc(C(=O)NCc2ccccc2)c1,4%
O=C(Nc1ccc(Br)cc1)c1ccc(NC(=O)C2(c3ccccc3)CCOCC2)cc1,i
CCCCNC(=O)c1cccc(OC)c1,i
COCC(C)NC(=O)c1ccccc1I (stereo unspecified),i
O=C(c1cccc(Br)c1)N1CCCCC1,i
COc1ccc(CNc2cnc3ccccc3c2)c(O)c1,11%
CCC(=O)Nc1nc2n(n1)C(c1ccc(OC)cc1)C=C(c1ccccc1)N2 (stereo unspecified),4%
CCOc1ccc(C(=O)Nc2ccc(S(=O)(=O)Nc3nccc(C)n3)cc2)cc1OCC,i
COc1ccc2nc(NC(=O)c3cnccn3)sc2c1,?
O=C(CSc1nnc2c(n1)[nH]c1ccccc12)c1ccc(F)cc1,i
O=C(Nc1ccc(Cl)cc1F)c1ccc(Cl)cc1Cl,23%
O=C(Nc1cccc2cccnc12)c1cccc(F)c1,38%
Cc1sc2ncnc(SCC(=O)Nc3ccccc3[N+](=O)[O-])c2c1C,7%
O=C(O)CCc1ccc(-c2ccc(F)cc2)n1CCc1ccccc1,i
CCOc1ccc2c(c1)sc1nc(C(=O)OC)cc(=O)n12,i
O=[N+]([O-])c1ccc(OCc2ccc(Br)cc2)cc1,2%
CCCc1cc(=O)[nH]c(SCC(=O)Nc2ccc(Cl)cc2Cl)n1,i
O=C(Cc1c(F)cccc1Cl)NCC1CCCO1 (stereo unspecified),i
O=C(Nc1ccccc1N1CCCCC1)c1ccc(F)cc1,i
COc1ccc(Cl)cc1C(=O)NCc1ccc(C(=O)O)cc1,i
CCN(CC)c1nc(NC(C)(C)C)nc(SCC(N)=O)n1,i
O=C(O)c1ccc(C2Nc3c(-c4ccccc4)cccc3C3C=CCC32)cc1 (stereo unspecified),i
COC(=O)c1c(C)oc2ccc(NS(=O)(=O)c3ccc(Cl)c(C)c3)cc12,i

# Remaining list, next part.
SMILES,Mtb growth
O=C(Cc1ccccc1)Nc1ccc(CN2CCCCC2)cc1,i
CCn1c(SCC(=O)Nc2ccccc2C)nnc1-c1ccco1,i
Cc1c(NC(=O)c2ncn[nH]2)cccc1-c1nc2cc(Cl)ccc2o1,i
CN1CCN(NC(=S)Nc2ccccc2)CC1,i
COC(=O)Cc1c(OC)ccc2cc(Br)ccc12,2%
CCOc1ccccc1N1CCN(C(=S)NC2CCCCC2)CC1,i
Cc1ccc(-c2cccc(N)c2)o1,1%
CCOc1ccccc1N1CCN(C(=O)Cc2ccccc2)CC1,i
CCN1CCCC1CNC(=O)C(=O)Nc1ccc(F)cc1 (stereo unspecified),i
C=CCn1c(SCC(=O)Nc2ccccc2C(F)(F)F)nc2sc3c(c2c1=O)CCCC3,2%
COc1ccc(-c2nn(-c3ccccc3)cc2C(=O)Nc2cccc(C)c2)cc1OC,i
CCOC(=O)C1=C(c2ccccc2)OC(N)=C(C#N)C1CC(C)C (stereo unspecified),i
COc1ccc(NC(=S)Nc2ccccc2F)cc1OC,i
COc1ccccc1NC(=O)CC1C(=O)NCCN1C(=O)Nc1ccc(Cl)c(Cl)c1 (stereo unspecified),i
Cc1ccccc1NC(=O)CSC1CC(=O)N(c2ccc(F)cc2)C1=O (stereo unspecified),i
O=C(Cc1cccc2ccccc12)NC1CC1,i
Cc1ccc(C)c(OCC(=O)Nc2ccc(S(=O)(=O)Nc3ncccn3)cc2)c1C,i
COc1ccc(NC(=O)CN(c2cccc(Cl)c2)S(=O)(=O)c2ccc(Cl)cc2)cc1OC,i
COc1ccc(C)cc1NS(=O)(=O)c1ccc(NS(=O)(=O)c2ccc(OC)c(Cl)c2Cl)cc1,i
COc1cc(NC(=S)NCc2ccco2)cc(OC)c1,i
Cc1ccc(NC(=O)Nc2ccc(F)cc2F)c(OC(F)F)c1,i
COc1ccc(NC(=O)CSc2nnc(-c3ccncc3)n2-c2ccc(Cl)cc2)cc1,i
O=C(CCc1ccccc1)NC(=S)Nc1ccc(N2CCOCC2)cc1,3%
COc1ccc(CNc2cc(C)ccn2)cc1,5%
C=CCn1c(CNC(=O)c2ccccc2F)n[nH]c1=S,i

# Other records follow:
SMILES,Mtb growth
Cn1ccnc1SCC(=O)N1CCc2ccccc21,i
CN(C)c1ccc(NC(=O)CSc2nc3c(c(C(F)(F)F)c2C#N)CCCCCC3)cc1,9%
Cc1cccnc1N1C(=O)C2C3c4ccccc4C(C)(c4ccccc43)C2C1=O (stereo unspecified),i
CSc1cccc(NC(=O)CN(c2ccc(C)cc2C)S(C)(=O)=O)c1,i
COc1cc([N+](=O)[O-])ccc1NC(=S)Nc1ccc2c(c1)CCC2,i
CCc1ccc(N2CC(C(=O)Nc3c(C)cccc3Cl)CC2=O)cc1 (stereo unspecified),i
CCCn1c(Cc2ccccc2)n[nH]c1=S,i
Cc1cc(S(=O)(=O)N2CCN(c3ccc(F)cc3)CC2)c(C)cc1Br,i
COc1cccc(NC(=O)COc2cc(Cl)ccc2Cl)c1,i
CC(C)(C)NC(=O)c1cccc(NC(=O)COc2ccccc2Cl)c1,6%
CCOC(=O)c1cc(CC)sc1NC(=O)c1ccccc1C,i
OC(CNCC#Cc1ccccc1)c1ccccc1 (stereo unspecified),37%
O=C(c1cccs1)c1cn(CC(=O)N2CCCC2)c2ccccc12,1%
COc1ccc(S(=O)(=O)N2CCC(C(=O)NCCC3=CCCCC3)CC2)cc1C,i
CC(C)C(=O)N1CCN(c2ccccc2NC(=O)c2ccc([N+](=O)[O-])o2)CC1,1.9µg/mL*
Cc1cc(Br)ccc1OCC(=O)N1CCC(C(N)=O)CC1,i
CCCCn1cnc2cc(C)c(C)cc21,?
